Rango-impB inh = prevents formation of the Rango-importin beta complex | Rango CFP/YFP FRET sensor + importin beta, 45 min | actives 0.031% (n = 340,000) | Potency, µM (top dose mostly 92.2 µM), for the others: at the highest dose inhibition of complex formation | AID 540263 | Q14974; active = rising FRET ratio curve, often small or poorly fitted; inconclusive = mostly compound fluorescence or quenching in the first reads; inactive = flat curves in all reads;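 further: potency means the concentration at half of the fitted maximal effect; 0% = DMSO wells and 100% = buffer wells lacking importin beta; nearly all actives have a fitted effect of over 15% in size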
Target sequence (Q14974 whole entry, looked up): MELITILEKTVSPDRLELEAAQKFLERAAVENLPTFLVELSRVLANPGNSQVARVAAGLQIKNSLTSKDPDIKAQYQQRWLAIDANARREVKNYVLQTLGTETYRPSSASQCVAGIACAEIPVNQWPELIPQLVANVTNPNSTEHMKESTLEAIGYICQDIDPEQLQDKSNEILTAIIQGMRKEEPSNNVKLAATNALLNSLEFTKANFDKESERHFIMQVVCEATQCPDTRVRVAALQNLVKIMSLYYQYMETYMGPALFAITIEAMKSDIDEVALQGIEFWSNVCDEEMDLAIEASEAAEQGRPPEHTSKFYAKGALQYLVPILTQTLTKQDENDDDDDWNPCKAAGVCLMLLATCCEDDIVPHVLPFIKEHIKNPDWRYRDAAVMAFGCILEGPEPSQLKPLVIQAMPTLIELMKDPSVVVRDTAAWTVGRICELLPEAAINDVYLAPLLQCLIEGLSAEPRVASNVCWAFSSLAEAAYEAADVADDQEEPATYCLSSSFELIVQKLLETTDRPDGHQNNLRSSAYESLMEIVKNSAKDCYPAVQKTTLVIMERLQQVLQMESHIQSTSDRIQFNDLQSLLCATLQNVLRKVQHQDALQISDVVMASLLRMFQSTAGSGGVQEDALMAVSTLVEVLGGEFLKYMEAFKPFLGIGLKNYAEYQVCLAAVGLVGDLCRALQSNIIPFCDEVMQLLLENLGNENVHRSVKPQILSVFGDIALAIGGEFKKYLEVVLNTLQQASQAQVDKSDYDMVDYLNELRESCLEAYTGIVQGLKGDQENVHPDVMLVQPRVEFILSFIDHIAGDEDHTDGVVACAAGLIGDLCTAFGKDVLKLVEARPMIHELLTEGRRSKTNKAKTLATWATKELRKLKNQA
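Inhibition scored from the CFP 486 nm/YFP 530 nm FRET ratio 45 min after adding 0.125 microM importin beta to 50 nM Rango biosensor preincubated 5 min with compound (room temperature, PBS with DTT, Tween-20, BSA). No-importin wells as positive control.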
Rango release inh = inhibitors of RanGTP-induced Rango-importin beta complex dissociation. Potency, µM (titrated, usually from 46.1 µM), for the others: top-dose activity change, negative = inhibition. actives 0.071% (n = 340,000). O95149+P62826. Biochemical FRET Rango-importin beta, RanGTP-induced dissociation; active means falling FRET ratio curve, often poorly fitted, with flat reads before Ran was added; inconclusive means other falling curves, or compound fluorescence or quenching; inactive means flat or rising ratio curve;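 further: potency means the concentration at half of the fitted maximal effect; % of control where 0% means no effect; nearly all actives have a fitted effect of over 45% in size; -100% = wells without RanGTP and RCC1; the record marks most hits as doubtful in a second field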
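Compounds sat 5 min at room temperature with 0.1 uM Rango biosensor plus 0.25 uM importin beta, then FRET pre-read. RanGTP-RCC1 (0.6 uM Ran, 2mM GTP, 0.2 uM RCC1) added for 45 min, and the CFP/YFP post-read measured blocked complex dissociation.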
GLA inh pH 4.5 = inhibitors of human alpha-galactosidase A at pH 4.5 | purified enzyme, 4-MU-alpha-Gal fluorescence, pH 4.5 | activity change, negative = inhibition, % at 105 µM | 230,000 tested, under 10 active | AID 1467; inconclusive = small, poorly fitted or top-dose-only inhibition, or a rising curve; inactive = flat fitted curve, though single readings scatter; no compound was filed as active;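 further: 0% = full activity with enzyme and -100% = basal without enzyme; dose as in the result columns while the protocol names 77 µM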
miR-21 reporter = raises the signal of a miR-21 reporter | Potency, µM (highest dose often 38.3 µM), inactives show at the top dose reporter change, positive = more light | HeLa miR-21 FLuc reporter, luciferase, 48 h | 340,000 tested, under 10 active; active = well fitted rising curve with a large enough effect; inconclusive = small, poorly fitted or top-dose-only effect; inactive = no such curve, though single readings can be large or run the other way;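 further: % of control where 0% means no effect; miR-21 action dims this reporter so a rising signal means less miR-21 action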
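HeLa cells stably expressing CMV-driven firefly luciferase with a downstream miR-21 binding sequence, endogenously expressing miR-21, were treated with titrations (up to about 40uM final) for 48 hours at 37 degree Celsius. Luciferase luminescence was read after lysis.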
* hit, by the source's call; ? = inconclusive; nt = no result given; & = joins results of further samples.

Results follow in this order: Rango-impB inh, GLA inh pH 4.5, miR-21 reporter, Rango release inh
(1) Cn1cccc1/C=N/n1c(-c2ccc(Cl)cc2Cl)n[nH]c1=S
  -1.8%, -4, -6%, -13%
(2) N#CC1=C(N)NC(SCc2ccc(Br)cc2)=C(C#N)C12CCCCC2
  -0.6%, -10, 22%, 2%
(3) CCC(=O)Oc1ccc(C/C(=N\O)c2ccc(O)cc2O)o1
  -0.7%, 2, 19%, -2%
(4) COc1cccc(N2CCN(C(=O)c3cc4c(=O)n(Cc5ccccc5)ccc4nc3C)CC2)c1
  -2.8%, nt, 12%&21%, 0%
(5) COc1ccc(OCc2nnc(SCC(=O)Nc3cccc(Cl)c3)o2)cc1
  3.0%, nt, 5%, 16%
(6) COc1cccc(NC(=O)COC(=O)c2c(NC(C)=O)sc(C)c2C)c1
  5.9%, nt, nt, 5%
(7) Brc1ccc(-c2cnco2)cc1
  0.2%, -5, 1%, 0%
(8) O=C(/C=C/c1ccccc1Cl)OCC(=O)N1CCCC1
  -2.8%, nt, nt, -1%
(9) COc1cccc(NC(=O)COC(=O)c2nc3nccc(C)n3n2)c1
  -4.6%, 2, -8%, 0%
(10) CCOC(=O)C1Nc2ccccc2C2c3ccccc3CC12 (stereo not given)
  8.6%, nt, nt, 19%
(11) Cn1c(SCC(=O)NC2CC2)nnc1-c1ccccc1Cl
  -0.1%, nt, 0%, -3%
(12) CCn1c(CSc2nc(C)cc(C)n2)nnc1SCC(=O)Nc1cccc2ccccc12
  -0.7%, -4, -7%, 8%
(13) Cc1ccccc1NC(=O)NCCN1C(=O)C2C3C=CC(C3)C2C1=O (stereo not given)
  6.3%, 12, -14%, -12%
(14) Cc1ccc([N+](=O)[O-])cc1S(=O)(=O)N1CCC(C)CC1
  -0.2%, -6, -6%, 11%
(15) Cc1cc(C(=O)NCC(=O)OCC(=O)N(C2CCCCC2)C2CCCCC2)ccc1[N+](=O)[O-]
  5.3%, -4, 1%, 14%
(16) COc1ccccc1NC(=O)COC(=O)COc1ccccc1F
  -0.7%, nt, nt, -12%
(17) Cc1ccc(C)c(S(=O)(=O)N2CCN(CC(=O)Nc3ccc([N+](=O)[O-])cc3)CC2)c1
  -3.1%, -4, 11%, -3%
(18) CC(CC(=O)O)CC(=O)N1CCN(S(=O)(=O)c2cccs2)CC1 (stereo not given)
  0.9%, nt, 1%, -2%
(19) COc1ccc(S(=O)(=O)NCCc2ccccn2)cc1
  -0.1%, nt, nt, 0%
(20) COc1cc(CNCc2cccc3ccccc23)cc(OC)c1
  ?, nt, 0%, 9%
(21) Cc1ccccc1-c1nc(CS(=O)CC(=O)NCCN2CCN(Cc3ccccc3)CC2)c(C)o1 (stereo not given)
  -7.6%, 12, 8%, 3%
(22) O=C(O)CC1(c2ccccc2)C(=O)c2ccccc2C1=O
  -2.8%, 10, 2%, -14%
(23) CCN(CC)CCCNC(=O)C1CCC(=O)N(c2ccc(OC)cc2)C1c1ccc(F)cc1 (stereo not given)
  1.8%, 9, -1%, 2%
(24) O=[N+]([O-])c1ccccc1S(=O)(=O)Nc1ccc2c(c1)OCCO2
  6.3%, nt, -16%, 12%
(25) CC(=O)c1c(C)[nH]c(C(=O)NC2CCCCC2)c1C
  7.9%, 3, -26%, -11%
(26) COc1ccc(OC)c(S(=O)(=O)Nc2cc(C)on2)c1
  -0.4%, nt, -1%, -1%
(27) Cc1ccn2cc(CNS(=O)(=O)c3ccc4c(c3)OCCO4)nc2c1
  ?, -2, 0%, 1%
(28) Cc1ccn2c(Nc3ccccc3C)c(-c3ccccn3)nc2c1
  -1.7%, 0, 27%&26%, -9%
(29) Fc1ccc(NC(=S)NN=C2CCCCCC2)cc1
  2.6%, 6, -26%, 11%
(30) CN(C)c1nc(NCc2ccccc2)nc(N/N=C/c2ccc3c(c2)OCO3)n1
  3.8%, ?, -10%, 0%
(31) O=C(Oc1c(-c2ccco2)oc2ccccc2c1=O)c1cccnc1
  ?, -11, -13%, ?
(32) CC(C)CC(NC(N)=O)C(=O)Nc1cccc([N+](=O)[O-])c1 (stereo not given)
  4.1%, 11, 6%, 10%
(33) Cc1cc(NC(=O)C2C3C(=O)N(Cc4ccc(Cl)cc4)C(C(=O)NCc4ccccc4)C34C=CC2(C)O4)no1 (stereo not given)
  -0.2%, -3, 4%, 28%
(34) Cc1ccc(OCC(=O)NCc2ccccn2)c(Br)c1
  -1.0%, -1, -56%, 10%
(35) C/C(=N\Nc1nncc2ccccc12)c1cccc(OC(F)F)c1
  1.5%, nt, -81%, 12%
(36) O=C(C1CCC(CNS(=O)(=O)c2ccccc2)CC1)N1CCOCC1 (stereo not given)
  -0.5%, nt, 4%, -10%
(37) O=C(NCc1ccccn1)c1ccc(Cl)c(NC2=NC3CS(=O)(=O)CC3S2)c1 (stereo not given)
  -1.6%, nt, 1%, 3%
(38) COc1ccc(/C=N/Nc2nnc(C)n2N)cc1OC(C)=O
  -1.5%, nt, -19%, 1%
(39) Cc1cc(NC(=O)Cn2c(=O)c3c(ncn3CC(C)C)n(Cc3ccccc3)c2=O)no1
  -0.4%, -10, -13%, 7%
(40) Cc1cc(N2CCC(C(=O)N3CCN(c4cccc(C)c4C)CC3)CC2)n2ncnc2n1
  6.5%, 0, 0%, 8%
(41) Cc1ccc(N(CC(=O)NC(C)c2ccccc2)S(=O)(=O)c2cccs2)cc1 (stereo not given)
  4.3%, 5, -2%, 6%
(42) COc1ccc(Cn2cnc3c(N)c(C)c(C)cc32)cc1
  -0.8%, 2, -2%, 0%
(43) CC1CN(CC(=O)Nc2ccc(S(N)(=O)=O)cc2)CC(C)O1 (stereo not given)
  1.6%, nt, 2%, -4%
(44) Cc1ccc(-c2c(NC(=O)c3ccco3)oc3ccccc3c2=O)cc1
  0.9%, nt, -23%, -9%
(45) Cc1cccc(NC(=O)N2CCN(Cc3ccc4c(c3)OCO4)CC2)c1C
  4.3%, -1, -3%, 63%
(46) CCOC(=O)C1CCCN(C(=O)C2COc3ccccc3O2)C1 (stereo not given)
  -0.2%, nt, nt, 2%
(47) O=C(NCc1ccccc1)C1=C[C@H](c2csc3ccccc23)C[C@H](OCCCCO)O1
  -1.9%, -4, ?, -4%
(48) COCc1c(C(=O)N(C)Cc2ccccc2N2CCCC2)oc2ccccc12
  0.0%, nt, nt, 32%
(49) CCOC(=O)c1ccc(N=c2scc(C)n2CC)cc1
  -3.0%, -2, -32%, -5%
(50) COc1ccc(C(=O)Nc2ccnn2C2CCN(C(=O)CCC(F)(F)F)CC2)cc1
  1.1%, nt, -5%, 21%
(51) O=C(CSc1nnc(NC(=O)C2CC2)s1)NCc1ccccc1
  -3.2%, nt, -4%, 13%
(52) COc1ccc(CCC(=O)Nc2cccc(S(=O)(=O)N3CCCCCC3)c2)cc1OC
  ?, nt, nt, -14%
(53) O=C(COC(=O)c1cc(S(=O)(=O)N2CCOCC2)ccc1O)Nc1cc(S(=O)(=O)N2CCCC2)ccc1Cl
  2.5%, 2, 4%, 6%
(54) O=C(COc1ccc2c3c(c(=O)oc2c1)CCC3)N1CCCCC1
  2.6%, nt, -51%, -13%
(55) Cc1cccc2nc(CSCc3ccco3)cn12
  ?, 1, -46%, -14%
(56) CCc1ccc(NC(=S)NNC(=O)c2ccccc2OC(F)F)cc1
  nt, -6, 9%, nt
(57) O=S(=O)(NCc1ccc(F)cc1)c1cccc(S(=O)(=O)N2CCOCC2)c1
  -3.1%, 5, -1%, 12%
(58) Cc1ccc(S(=O)(=O)/N=C(/NNC(=O)c2cccc(Cl)c2)c2ccccc2)cc1
  6.2%, nt, -61%, -12%
(59) COc1ccc(C(C)(C)C)cc1NC(=O)CCCN1C(=O)NC(C)(C)C1=O
  0.4%, nt, nt, 8%
(60) CC(NC(=O)c1ccc(Br)cc1)c1ccc2c(c1)CCCC2 (stereo not given)
  -5.3%, -2, -10%, 10%

Among those listed so far, 7 contain two or more sulfur atoms:
Results follow in this order: Rango-impB inh, GLA inh pH 4.5, miR-21 reporter, Rango release inh
(12) CCn1c(CSc2nc(C)cc(C)n2)nnc1SCC(=O)Nc1cccc2ccccc12
  -0.7%, -4, -7%, 8%
(18) CC(CC(=O)O)CC(=O)N1CCN(S(=O)(=O)c2cccs2)CC1 (stereo not given)
  0.9%, nt, 1%, -2%
(37) O=C(NCc1ccccn1)c1ccc(Cl)c(NC2=NC3CS(=O)(=O)CC3S2)c1 (stereo not given)
  -1.6%, nt, 1%, 3%
(41) Cc1ccc(N(CC(=O)NC(C)c2ccccc2)S(=O)(=O)c2cccs2)cc1 (stereo not given)
  4.3%, 5, -2%, 6%
(51) O=C(CSc1nnc(NC(=O)C2CC2)s1)NCc1ccccc1
  -3.2%, nt, -4%, 13%
(53) O=C(COC(=O)c1cc(S(=O)(=O)N2CCOCC2)ccc1O)Nc1cc(S(=O)(=O)N2CCCC2)ccc1Cl
  2.5%, 2, 4%, 6%
(57) O=S(=O)(NCc1ccc(F)cc1)c1cccc(S(=O)(=O)N2CCOCC2)c1
  -3.1%, 5, -1%, 12%

Exported in markdown: two of the compounds above
| cpd | SMILES | Rango-impB inh | GLA inh pH 4.5 | miR-21 reporter | Rango release inh |
| --- | --- | --- | --- | --- | --- |
| 9 | COc1cccc(NC(=O)COC(=O)c2nc3nccc(C)n3n2)c1 | -4.6% | 2 | -8% | 0% |
| 10 | CCOC(=O)C1Nc2ccccc2C2c3ccccc3CC12 (stereo not given) | 8.6% | nt | nt | 19% |

(listing goes on)
Results follow in this order: Rango-impB inh, GLA inh pH 4.5, miR-21 reporter, Rango release inh
(61) COc1cc(C)c(C(=O)Oc2cc(C)c(C(=O)O)c(O)c2C)c(O)c1C
  -2.5%, nt, nt, -5%
(62) Cc1cc(Cl)ccc1NNC(=O)CCc1ccccc1
  0.4%, 1, -8%, -10%
(63) CCOC(=O)C1=C(C)OC(N)=C(C(=O)OCC)C1c1cccnc1 (stereo not given)
  2.7%, -9, -1%, 9%
(64) O=C(NCCCNC(=O)c1ccccn1)c1ccc(Br)cc1
  4.7%, nt, -6%, -11%
(65) O=C(Cc1csc(Nc2nc(=S)[nH]c3ccccc23)n1)NCc1cccc(Cl)c1
  -2.2%, 4, 2%, 1%
(66) CC1(c2ccc(OC(F)F)cc2)NC(=O)N(CC(=O)Nc2ccc(N3CCCCC3)cc2)C1=O (stereo not given)
  0.9%, nt, nt, 29%
(67) Cc1cccc(NC(=O)CCNC(=O)c2ccco2)c1
  1.0%, 1, -1%, 7%
(68) CCCOc1cc(CN2CCCCC2)cc(C(C)=O)c1
  -2.3%, 3, -12%, 0%
(69) Clc1ccc(-n2cccc2CN2CCc3c([nH]c4ccccc34)C2c2ccccn2)nc1 (stereo not given)
  ?, -1, 10%, ?
(70) COc1ccc(OC)c(S(=O)(=O)N2CCC(C(=O)NC3CC3)CC2)c1
  2.0%, nt, -1%, 11%
(71) Cc1cc(C)n(-c2ccc(C(=O)N3CCN(S(=O)(=O)c4ccc(C(C)C)cc4)CC3)cc2)n1
  2.5%, nt, nt, 6%
(72) O=C(c1ccc(F)cc1)N1CCN(c2cc(N3CCCCC3)c(F)cc2[N+](=O)[O-])CC1
  -1.3%, -9, 3%, 2%
(73) CC(C)CCOc1ccc(C(=O)NN2C(=O)NC3(CCCCC3)C2=O)cc1
  ?, nt, nt, -2%
(74) Cc1ccc(CNC(=O)CSCc2ccccc2F)cc1
  1.3%, 3, -33%, -14%
(75) CC1=C(/C=C/C(C)=N\NC(=O)c2ccncc2)C(C)(C)CCC1
  -0.3%, 2, 0%, 17%
(76) COc1ccc(NC(=O)C2CCN(S(=O)(=O)c3cccc4cccnc34)CC2)cc1OC
  nt, -8, -4%, nt

This is a subset; rates above refer to the full screens.
